TRPML1 blocker: blocks the human TRPML1 channel; TRPML1-inducible cells, Ca2+ dye fluorescence, FDSS; hits give low values; inhibition of EC80 agonist-evoked calcium signal; activity change, negative = inhibition, % (concentration not given with the values); 390,000 tested, 0.02% active; in the data active means activity change below about -50%; inconclusive means about -30% to -50%; inactive means above about -30%;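 also: stimulus is agonist 54-4 at its EC80 concentration; % is scaled to controls: 0 for no effect and ±100 for the full control effect; compound concentration not given in the record; the text of the record puts the active cut at -80%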
Target sequence (Q9GZU1 whole entry, looked up): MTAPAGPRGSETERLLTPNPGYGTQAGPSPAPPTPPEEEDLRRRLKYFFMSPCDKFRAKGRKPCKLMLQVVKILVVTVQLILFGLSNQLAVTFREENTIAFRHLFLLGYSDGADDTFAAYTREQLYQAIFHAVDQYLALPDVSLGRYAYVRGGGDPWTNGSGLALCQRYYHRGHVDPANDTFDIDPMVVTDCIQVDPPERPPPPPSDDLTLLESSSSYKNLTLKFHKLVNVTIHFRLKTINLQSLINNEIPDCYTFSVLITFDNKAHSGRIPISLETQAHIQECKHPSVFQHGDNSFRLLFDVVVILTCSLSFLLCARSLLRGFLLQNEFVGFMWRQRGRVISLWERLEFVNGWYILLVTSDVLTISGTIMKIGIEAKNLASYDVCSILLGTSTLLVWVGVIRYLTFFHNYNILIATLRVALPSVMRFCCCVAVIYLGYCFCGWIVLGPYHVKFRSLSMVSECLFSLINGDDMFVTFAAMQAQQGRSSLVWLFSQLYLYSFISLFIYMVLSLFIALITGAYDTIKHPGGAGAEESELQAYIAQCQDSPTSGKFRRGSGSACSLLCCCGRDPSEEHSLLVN
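Calcium fluorescence in TRPML1-DL cells induced overnight with Tet: a 110 s read after compound pin addition, then a 110 s antagonist read after challenge with 54-4 at 4 uM final (EC80).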
CtBP-E1A blk: inhibitors of CtBP/E1A interaction; AlphaScreen GST-E1A/His-CtBP binding, 1536-well; hits give low values; control for the full effect not named in the record; activity change, % (concentration not given with the values); 340,000 tested, 0.49% active; AID 651724; in the data active means activity change below about -65%; inconclusive means about -30% to -65%; inactive means above about -30%; also: % is scaled to controls: 0 for no effect and ±100 for the full control effect
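AlphaScreen with 125 nM GST-E1A and 125 nM His-CtBP (5X stocks) in Tris pH 8.0, 300 mM NaCl, BSA, Tween 20, TCEP. Compounds preincubated 2 h at 37 deg C, then glutathione donor/nickel acceptor beads added for 1 h at 37 deg C in dark.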
TRPML1 agonist: activates the human TRPML1 channel; AID 624414; 410,000 tested, 0.12% active; activation, % (concentration not given with the values); TRPML1-expressing cells, Ca2+ dye fluorescence, FDSS; host cell line not named in the record; reference of the full effect not given here; in the data active = activation above about 50%; inconclusive = about 30% to 50%; inactive = below about 30%; also: 0% is about no effect; the text of the record puts the active cut at 80%
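Tet-induced TRPML1-DL cells, 1,500 per well, cultured overnight, were loaded with a no-wash Ca2+ dye for 45–90 min. Calcium fluorescence was recorded on the FDSS for 110 s after compound addition, before the EC80 agonist (4 uM 54-4) was added.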
Six1-Eya2 inh: blocks human Six1 binding to Eya2 | activity change, % (test concentration not listed) | AID 651725 | AlphaScreen GST-Six1/His-Eya2 binding, biochemical; hits give low values; control for the full effect not named in the record | Q15475+O00167 | 360,000 tested, 0.56% active; in the data active = activity change below about -65%; inconclusive = about -30% to -65%; inactive = above about -30%; also: % is scaled to controls: 0 for no effect and ±100 for the full control effect; compound concentration not given in the record
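AlphaScreen with GST-Six1 and His-Eya2 (5X mix: 250 nM and 500 nM), glutathione donor and nickel acceptor beads; buffer 50 mM Tris pH 8.0, 300 mM NaCl, 1 mM TCEP; 1 h at 37 C in the dark.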
PINK1 expr mod: changes PINK1 expression | 410,000 tested, 0.2% active | Potency, µM (top dose mostly 76.6 µM), without a hit: top-dose activation (PINK1 increase), most hits filed as activators | PINK1 immunofluorescence, high-content cytometry, 24 h; active = well fitted activation curve with a large enough effect; inconclusive = small, poorly fitted or top-dose-only effect; inactive = flat fitted curve, though single readings scatter; cell line not stated here;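 also: potency is read from the fitted curve at half-maximal effect; % of control where 0% means no effect; nearly all actives have a fitted effect of over 65% in size; a mitochondrial uncoupler was the plate control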
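Measures PINK1 amount and localization on or inside mitochondria by immunofluorescence. Stable cells get compounds at 5 concentrations for 24 hours before fixation and staining; CCCP controls included.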
D2 agonist: activates the human D2 dopamine receptor; activation, % (concentration not given with the values); AID 624465; DiscoveRx PathHunter D2 beta-arrestin, luminescence, 90 min; 100% = 57 uM dopamine signal; 360,000 tested, 0.084% active; P14416; in the data active = activation above about 40%; inconclusive = about 15% to 40%; inactive = below about 15%; also: compound concentration not given in the record; the text of the record calls up to 30% inactive
Target sequence (P14416 whole entry, looked up): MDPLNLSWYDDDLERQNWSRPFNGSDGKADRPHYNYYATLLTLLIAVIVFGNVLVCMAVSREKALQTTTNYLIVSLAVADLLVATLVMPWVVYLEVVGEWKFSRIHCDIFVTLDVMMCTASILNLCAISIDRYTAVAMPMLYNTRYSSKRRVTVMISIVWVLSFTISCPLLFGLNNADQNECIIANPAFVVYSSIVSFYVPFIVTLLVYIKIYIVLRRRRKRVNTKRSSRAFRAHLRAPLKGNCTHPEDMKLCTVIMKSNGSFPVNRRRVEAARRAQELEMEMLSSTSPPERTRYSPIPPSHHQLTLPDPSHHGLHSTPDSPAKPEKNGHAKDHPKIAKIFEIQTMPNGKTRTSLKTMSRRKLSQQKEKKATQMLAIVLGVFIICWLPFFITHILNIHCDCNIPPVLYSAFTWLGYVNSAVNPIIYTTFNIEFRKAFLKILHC
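Agonist mode: compounds alone added to overnight-plated D2 PathHunter cells for 90 min at 37 C, with 57 uM final dopamine (EC100) defining full response. Beta-arrestin recruitment detected by chemiluminescent reagent, read after 1 h at ambient temperature.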
* marks the source's active call; other numbers are inactive results; ? = inconclusive; · = not tested or not shown; [ ] = another dose, or the depositor's remark.

SMILES	TRPML1 blocker	CtBP-E1A blk	TRPML1 agonist	Six1-Eya2 inh	PINK1 expr mod	D2 agonist
COc1ccc(C(=O)NC(C)c2ccc(-n3ccnc3)cc2)c(OC)c1 (centres undefined)	0.4	14.0	-0.9	22.2	-1.6%	3.7
Cc1ccc(/C=C(\NC(=O)c2ccccc2)C(=O)NCCN2CCOCC2)o1	19.7	4.7	0.3	-1.5	-0.6%	-2.7
Cc1cc(C)n(-c2nc(-c3cccc(Cl)c3)cs2)n1	43.0	15.3	-0.3	20.5	10.5%	-1.1
O=C(CCc1nc(CN2CCN(S(=O)(=O)c3ccc(Cl)cc3)CC2)no1)N1CCCCC1	8.2	·	-0.3	·	-1.7%	·
CCOC(=O)CN1C2=NCCN2c2ccccc21	33.9	1.9	1.0	-5.0	-1.8%	-2.7
O=C(O)C1CC=CCC1C(=O)N1CC=C(c2ccccc2)CC1 (centres undefined)	-7.4	3.3	-0.4	-10.8	0.9%	1.1
O=C(O)COCC(=O)Nc1ccc2c(c1)ncn2CCc1ccccc1	8.4	-0.8	-0.4	7.9	1.7%	1.8
O=C(Cn1nc(-c2ccccc2)nc(Cc2ccccc2)c1=O)Nc1ccccc1	30.4	·	2.0	·	-0.9%	·
COC(=O)CSc1ncnc2scc(-c3ccccc3)c12	-3.4	16.2	1.0	24.9	-1.5%	-18.6
CC(C)OP(=O)(OC(C)C)C(Nc1ccccc1)c1cccc2c1OCO2 (centres undefined)	10.5	3.4	0.3	3.7	0.0%	-1.2
COCCNC(=O)CN(C(=O)CCC(=O)Nc1cc(C)on1)c1cccc(C)c1C	-12.8	6.6	-0.3	-0.8	0.7%	-3.9
NC(=O)c1cccnc1Oc1ccc(Cl)cc1	-12.7	-1.7	0.4	1.5	-0.2%	0.4
Cc1ccc(C)c(COC(=O)c2cc([N+](=O)[O-])ccc2N2CCOCC2)c1	49.4	-11.6	2.5	-15.4	1.3%	-0.2
Cc1ccc(OCc2ccc(C(=O)Nc3nccs3)o2)cc1	9.7	-6.1	1.4	-0.4	3.1%	-2.5
COc1ccc(/C=C2/SC(=S)N(CCCC(=O)N3CCN(C)CC3)C2=O)cc1	-2.3	-9.7	0.3	-18.2	2.6%	-5.2
Cc1sc2ncn(CC(=O)N3CCN(c4ccccc4F)CC3)c(=O)c2c1S(=O)(=O)N1CCOCC1	-8.8	3.4	-0.3	2.4	2.6%	-1.4
O=C(CC(O)c1ccccc1)Nc1ccccn1 (centres undefined)	-13.7	-2.5	-0.6	0.3	-1.0%	-0.3
CN(c1cccc(NC(=O)CN(c2cccc(Cl)c2)S(=O)(=O)c2ccccc2)c1)S(C)(=O)=O	-10.2	6.5	2.6	7.4	0.7%	1.7
CCOCCCNC(=O)C1CCCN(c2ncnc3onc(C)c23)C1 (centres undefined)	-6.6	·	0.4	·	-0.5%	·
O=C(Cn1cc(SCc2c(F)cccc2Cl)c2ccccc21)N1CCCCCC1	36.4	·	1.3	·	3.3%	·
O=C(CSc1nnc(-c2ccccc2F)o1)NC1CC1	-3.0	3.5	1.8	1.1	-0.3%	-0.9
CC(C)(C)NC(=O)c1ccc2nc(CCc3ccccc3)oc2c1	-10.3	·	1.9	·	0.8%	·
CCC(=O)Nc1ccc2nc(SCC(=O)N3CCc4ccccc43)sc2c1	-7.7	·	2.0	·	1.1%	·
CN(C)c1ccc(N=Nc2ccc(S(=O)(=O)O)cc2)c2ccccc12	0.9	·	1.6	?	0.4%	-16.3
COCc1nc2ccccc2n1CCCOc1ccccc1	-4.9	7.5	2.3	-8.4	3.4%	-1.8
C[C@H]1CN([C@@H](C)CO)C(=O)CCCn2nncc2CO[C@H]1CN(C)S(=O)(=O)c1ccccc1F	35.8	4.3	-0.1	3.8	0.8%	-10.5
CCCn1nnnc1COc1ccc(C(N)=O)cc1	5.6	13.1	1.5	1.8	-0.3%	-0.5
Cc1cc(C(=O)N[C@H](c2ccccc2)[C@@]2(C)C[C@@H]2[C@@H](C)C(=O)Nc2ccc3ccccc3c2)no1	8.2	-0.5	0.0	-0.7	0.4%	-1.9
C=CCC(C#Cc1ccc(C)cc1)N(CC)CC (centres undefined)	-1.1	0.0	-0.3	8.1	5.6%	0.1
O=C(Nc1ccc(F)cc1F)c1ccccc1NC(=O)C1CC=CCC1C(=O)O (centres undefined)	6.3	3.8	0.0	6.3	3.5%	-4.9
Cc1ccc(S(=O)(=O)N2CCCCC2)cc1NC(=O)Cn1cnc2c1c(=O)n(C)c(=O)n2C	2.2	1.6	-0.2	0.6	4.4%	-1.4
CCOc1ccc(CN2C(=O)c3ccccc3Sc3ccc(C(=O)NCc4ccco4)cc32)cc1	12.9	·	0.3	·	5.0%	·
CCN(CC)CCCn1c(=S)[nH]c2cc(OC)c(OC)cc2c1=O	-11.7	-0.2	-0.2	-3.3	2.8%[38.3 µM]	-0.6
O=C1c2[nH]nc(-c3ccccc3O)c2C(c2cccc(OCc3ccccc3)c2)N1CCO (centres undefined)	5.5	·	-0.7	·	3.2%	·
CCn1cc2nc(SCc3ccc(C)cc3)n(CCc3ccccc3)c(=O)c2n1	26.6	·	1.1	·	?	·
O=C1CN(C(=O)COc2ccc(Br)cc2)c2ccccc2N1	3.3	8.1	-0.5	0.3	3.5%	1.0
CCC1(C)CC(=O)c2c(ccc3oc(C(=O)Nc4ccc(C(C)=O)cc4)c(C)c23)O1 (centres undefined)	-16.5	·	?	·	0.1%	·
Cc1nn2c(=O)cc(COC(=O)c3ccc(S(=O)(=O)N4CCCCC4)cc3)nc2s1	-12.3	6.7	-1.0	3.0	7.7%	-2.4
Cc1ccc(C)c2c1cc(C)c1nnc(SCc3ccccn3)n12	12.7	-2.3	-0.5	3.7	·	-1.8
Cc1ccc(C)c(C(=O)CSc2nc(-c3ccccc3)nc3c2CCCC3)c1	27.9	·	1.4	·	3.3%	·
O=C(COC(=O)COc1ccccc1Cl)Nc1ccccc1OC(F)F	-13.8	3.2	0.8	4.1	-0.9%	-1.6
CCOC(=O)CC1=CC(C)(CC(=O)OCC)C(C#N)(C#N)C(N)=C1C#N (centres undefined)	5.4	7.8	-0.1	-12.9	·	-2.2
Cc1ccc(NC(=O)c2ccc([N+](=O)[O-])s2)cc1S(=O)(=O)N1CCOCC1	19.4	-10.4	-0.2	-16.5	1.7%	6.1
O=C(O)c1ccccc1NCc1ccsc1	22.1	3.2	-0.7	9.8	-1.1%	1.8
OC(c1ccccc1)c1ncc(-c2cccc(OCc3ccccc3)c2)[nH]1 (centres undefined)	·	-22.9	-0.2	-22.0	4.0%	-3.1
COc1cccc(C(=O)Nc2ccc(N3CCN(S(C)(=O)=O)CC3)cc2)c1	14.2	6.3	0.5	7.5	·	-3.8
S=C(NCc1ccccc1Cl)NC1CCCC1	-3.5	1.7	1.4	-2.6	1.6%	-3.2
O=C(Nc1ccc(Cl)c(C(F)(F)F)c1)C1CCN(S(=O)(=O)c2cccc3nonc23)CC1	-7.6	·	-0.3	·	?	·
Cc1nnc2sc(SCc3cccc(Cl)c3)nn2c1=O	-11.4	0.0	2.1	10.3	3.8%	-8.1
Cc1cccc(C)c1Nc1c(-c2cccs2)nc2ncccn12	4.9	·	0.0	·	0.5%	·
Cc1ccc(NC(=O)CCc2nc3cccnc3n2-c2ccccc2)cc1	-8.9	·	0.2	·	2.0%	·
COc1ccc(C(=O)NCc2cccnc2)cc1S(=O)(=O)N1CCOCC1	0.8	3.7	-0.6	-0.5	13.9%[38.3 µM]	-0.6
CCN(CC)S(=O)(=O)c1ccc(C(=O)Oc2cc(C)[nH]c(=O)c2[N+](=O)[O-])cc1	-9.8	·	0.2	-2.8	0.8%	-2.4
CC(=O)c1c(C)[nH]c(C(=O)CN2CCN(S(=O)(=O)c3ccc(C(C)C)cc3)CC2)c1C	11.3	1.5	-0.7	-1.2	8.2%	0.0
N=C(N)c1ccc(N)cc1	-20.0	5.7	-0.2	5.4	0.9%	-3.4
Cc1ccc(SCCC(=O)N(C)C)cc1	1.2	8.3	0.0	7.0	?	-0.5
O=C(NCCc1ccccc1)C1=COCCO1	-0.6	1.8	0.4	-5.8	-0.1%	-6.8
O=c1c2[nH]c3ccc(Br)cc3c2ncn1CCCn1ccnc1	-1.4	-28.4	1.3	?	6.9%	-5.1
COc1ccc(CCN2C(=O)COc3ccccc3C2C(=O)NC(C)(C)C)cc1OC (centres undefined)	·	-21.5	-0.2	16.0	1.8%	·
Cc1nc(C)n(CC(=O)N2CCCC(C(=O)c3cccc4ccccc34)C2)n1 (centres undefined)	-3.1	4.5	1.1	2.4	1.4%	0.7

In another format: results already given
Compound,TRPML1 blocker,CtBP-E1A blk,TRPML1 agonist,Six1-Eya2 inh,PINK1 expr mod,D2 agonist
COc1ccc(C(=O)NCc2cccnc2)cc1S(=O)(=O)N1CCOCC1,0.8,3.7,-0.6,-0.5,13.9%[38.3 µM],-0.6
N=C(N)c1ccc(N)cc1,-20.0,5.7,-0.2,5.4,0.9%,-3.4
CC(=O)c1c(C)[nH]c(C(=O)CN2CCN(S(=O)(=O)c3ccc(C(C)C)cc3)CC2)c1C,11.3,1.5,-0.7,-1.2,8.2%,0.0
Cc1nnc2sc(SCc3cccc(Cl)c3)nn2c1=O,-11.4,0.0,2.1,10.3,3.8%,-8.1

(next part)
SMILES	TRPML1 blocker	CtBP-E1A blk	TRPML1 agonist	Six1-Eya2 inh	PINK1 expr mod	D2 agonist
Nc1cc(=O)[nH]c(SCCSc2ccccc2)n1	1.3	6.5	0.7	-1.4	-0.5%	4.7
CC(CC(=O)OCC(=O)NCc1ccc(Cl)cc1)c1ccccc1 (centres undefined)	2.4	7.7	0.1	6.4	0.2%	4.7
N#CC(CC(=O)OCc1ccccc1)NC(=O)OCc1ccccc1 (centres undefined)	-13.3	2.7	-0.7	2.7	-0.7%	-0.2
CC1=N/C(=C/c2ccc([N+](=O)[O-])cc2)C(=O)N1c1ccc(Cl)cc1Cl	0.4	0.5	0.5	-1.7	0.5%[38.3 µM]	-1.2
CC1CCN(c2ncnc3c2cnn3-c2ccc(F)cc2)CC1	49.9	·	0.3	·	0.5%	·
O=C(Nc1ccc2c(c1)OCO2)C1CCCCN1S(=O)(=O)c1ccccc1 (centres undefined)	10.6	-4.0	-0.5	-7.5	-1.7%	-1.2
Cc1ccccc1CN1CCc2nc(N3CCN(c4ccccn4)CC3)ncc2C1	-1.6	·	1.2	·	5.4%	·
CCN(CC)CCCN1CC(O)=C(c2nc3ccccc3s2)C1=N	-17.8	-8.3	0.7	-3.4	-1.3%	-2.1
CCOC(=O)N1CCN(C(=O)c2ccc3c(SCC(=O)O)c4c(nc3c2)CCCC4)CC1	9.8	-19.5	-0.7	2.1	0.3%	0.5
COC(=O)c1cccc(NC(=O)c2ccco2)c1	-4.6	1.1	0.5	8.1	-0.9%	-2.1
O=C(CCC1CC(=O)Nc2ccccc21)NCc1ccccc1 (centres undefined)	-9.4	5.8	0.3	0.8	0.4%[38.3 µM]	-0.4

Bioassay records from PubChem.
